# EPAC2 ant val – validation of human EPAC2 antagonists. Q8WZA2. EPAC2 Rap1B BODIPY-GDP exchange, fluorescence. Potency, µM (highest dose often 112 µM), for inactives: at the top dose activity, negative = inhibition, actives largely listed as inhibitors. 16,000 tested, 1.7% active; active = well fitted inhibition curve with a large enough effect; inconclusive = small, poorly fitted or top-dose-only effect; inactive = no such curve, though single readings can be large or run the other way;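 note: 100% = activation by cAMP agonist control; nearly all actives have a fitted effect of over 40% in size; the record reuses the description of the EPAC1 agonist screen; inactives centre near -10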
# Target sequence (Q8WZA2 whole entry, looked up): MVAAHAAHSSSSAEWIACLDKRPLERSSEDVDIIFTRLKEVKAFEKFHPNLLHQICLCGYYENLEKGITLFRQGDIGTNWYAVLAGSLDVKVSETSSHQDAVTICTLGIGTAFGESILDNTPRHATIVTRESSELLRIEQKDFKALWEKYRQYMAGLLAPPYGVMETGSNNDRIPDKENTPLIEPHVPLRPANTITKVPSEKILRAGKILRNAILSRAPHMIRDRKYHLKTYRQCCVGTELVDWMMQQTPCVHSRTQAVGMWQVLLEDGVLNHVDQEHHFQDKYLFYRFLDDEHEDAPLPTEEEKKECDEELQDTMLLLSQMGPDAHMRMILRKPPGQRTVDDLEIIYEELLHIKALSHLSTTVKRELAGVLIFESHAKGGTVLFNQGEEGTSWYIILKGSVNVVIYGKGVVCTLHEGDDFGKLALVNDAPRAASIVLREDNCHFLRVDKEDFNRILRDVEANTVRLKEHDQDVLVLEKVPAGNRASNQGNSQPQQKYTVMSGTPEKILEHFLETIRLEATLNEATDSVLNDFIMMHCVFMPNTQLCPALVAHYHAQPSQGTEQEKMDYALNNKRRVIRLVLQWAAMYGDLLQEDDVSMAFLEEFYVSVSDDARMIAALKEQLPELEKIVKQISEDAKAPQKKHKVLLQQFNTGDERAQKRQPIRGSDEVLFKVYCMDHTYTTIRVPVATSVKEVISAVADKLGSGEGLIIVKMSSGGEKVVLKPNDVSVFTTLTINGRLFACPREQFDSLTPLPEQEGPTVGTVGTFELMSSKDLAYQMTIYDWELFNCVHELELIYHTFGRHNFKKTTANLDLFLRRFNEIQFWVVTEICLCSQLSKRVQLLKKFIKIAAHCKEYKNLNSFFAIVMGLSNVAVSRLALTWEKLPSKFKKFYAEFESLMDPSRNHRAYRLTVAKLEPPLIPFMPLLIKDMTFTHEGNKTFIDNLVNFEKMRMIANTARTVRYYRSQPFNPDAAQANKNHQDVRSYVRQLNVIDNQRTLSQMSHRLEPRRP
#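 Normalized against a 6.5 mM cAMP agonist control, compounds were tested on 100 nM EPAC2 exchanging Rap1B-bound BODIPY-GDP (250 nM) for 50 uM GDP. Fluorescence drop (ex 480, em 540 nm) was tracked at room temperature over 30 min at 5-min intervals.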
# * marks the source's active call; other numbers are inactive results; ? = inconclusive; & = joins results of further samples; [ ] = another dose, or the depositor's remark. Potency is the fitted concentration of half-maximal effect. An excerpt, so the mix of outcomes need not match the whole.
No. | SMILES | EPAC2 ant val
1 | N#Cc1cccc(NC(=O)N2CC[C@@]3(CCCN(C(=O)Oc4ccccc4)C3)C2)c1 | -11.3%
2 | N[C@@H](Cc1ccc(Oc2cc(I)c(O)c(I)c2)c(I)c1)C(=O)O | -6.1%
3 | N#Cc1cccc(NC(=O)N2CC3(CCN(C(=O)Oc4ccccc4)CC3)C2)c1 | -30.3%
4 | CN(CC(=O)N[C@H](CO)Cc1ccccc1)C(=O)[C@H](CCS(C)=O)NC(=O)[C@@H](N)Cc1ccc(O)cc1 (stereo partly drawn) | -3.4%[11.4 µM]
5 | CCC(C)(S(=O)(=O)CC)S(=O)(=O)CC | 3.7%
6 | CC(=O)Oc1ccc(/C=C/c2cc(OC(C)=O)cc(OC(C)=O)c2)cc1 | -9.6%
7 | C#CCN1C(C)=C(C(=O)CCO)[C@@H](c2cccc(-n3oo3)c2)C(C(=O)OC)=C1C | 20µM*
8 | Cn1sc(Cl)cc1=O | -14.9%
9 | CCCN(CCC)c1c([N+](=O)[O-])cc(C(F)(F)F)cc1[N+](=O)[O-] | ?
10 | CC(O)CN1CCN(CC(=O)[O-])CCN(CC(=O)[O-])CCN(CC(=O)[O-])CC1.[Gd+3] (stereo not drawn) | -5.2%&-25.9%
11 | CN(C)CCc1c[nH]c2cccc(OP(=O)(O)O)c12 | -15.9%[239 µM]
12 | CN1CCN(C(=O)O[C@H]2c3nccnc3C(=O)N2c2ccc(Cl)cn2)CC1 | -16.3%
13 | CC(C)OC(=O)Nc1cccc(Cl)c1 | -26.4%
14 | COC1CC(OC2CC[C@@]3(C=O)C4CC[C@]5(C)C(C6=CC(=O)OC6)CC[C@@]5(O)C4CC[C@]3(O)C2)OC(C)C1O (stereo partly drawn) | -8.9%
15 | OCc1cnc[nH]1 | 11.8%
16 | N#Cc1ccc(CN2CC[C@@]3(CCCN(C(=O)Oc4ccccc4)C3)C2)cc1 | -28.4%
17 | C/C=C(\CC)C(=O)NC(N)=O | -12.1%
18 | c1cc(CN2CCC3(CCNCC3)CC2)ccn1 | -13.2%
19 | O.O.O.O=C([O-])C(O)C(O)C(=O)[O-].O=C([O-])C(O)C(O)C(=O)[O-].[K+].[K+].[Sb].[Sb] (stereo not drawn) | 13.3%
20 | NC(=O)c1ccc(N)nc1 | -14.7%
21 | COC(=O)c1ccccc1C(=O)OC | -1.1%
22 | Oc1ccc2c3c1O[C@H]1c4[nH]c5ccccc5c4C[C@]4(O)[C@H](C2)N(CC2CC2)CC[C@@]314 | -23.7%
23 | CC1(C)CC/C(=C/c2ccc(Cl)cc2)C1(O)Cn1cncn1 (stereo not drawn) | ?
24 | CC(C)NCC(O)c1ccccc1Cl (stereo not drawn) | 13.7%
25 | FC(F)OC(F)(F)C(F)Cl (stereo not drawn) | -14.5%
26 | CC(=O)Oc1ccc2c3c1O[C@H]1[C@@H](OC(C)=O)C=C[C@H]4[C@@H](C2)N(C)CC[C@@]341 | -15.5%[239 µM]
27 | NCCc1cccc(O)c1 | -1.6%&-6.0%
28 | N[C@@H](CCP(=O)(O)O)C(=O)O | -21.7%
29 | C=CCc1cc(OC)c2c(c1OC)OCO2 | ?
30 | CCNCC(O)c1cccc(O)c1 (stereo not drawn) | 10.9%[56.6 µM]

# Three entries from above, as labelled records:
[21] COC(=O)c1ccccc1C(=O)OC
  EPAC2 ant val: -1.1%
[22] Oc1ccc2c3c1O[C@H]1c4[nH]c5ccccc5c4C[C@]4(O)[C@H](C2)N(CC2CC2)CC[C@@]314
  EPAC2 ant val: -23.7%
[23] CC1(C)CC/C(=C/c2ccc(Cl)cc2)C1(O)Cn1cncn1 (stereo not drawn)
  EPAC2 ant val: ?

# Shown as labelled records: part of the list above
[1] N#Cc1cccc(NC(=O)N2CC[C@@]3(CCCN(C(=O)Oc4ccccc4)C3)C2)c1
  EPAC2 ant val = -11.3%
[2] N[C@@H](Cc1ccc(Oc2cc(I)c(O)c(I)c2)c(I)c1)C(=O)O
  EPAC2 ant val = -6.1%
[3] N#Cc1cccc(NC(=O)N2CC3(CCN(C(=O)Oc4ccccc4)CC3)C2)c1
  EPAC2 ant val = -30.3%
[4] CN(CC(=O)N[C@H](CO)Cc1ccccc1)C(=O)[C@H](CCS(C)=O)NC(=O)[C@@H](N)Cc1ccc(O)cc1 (stereo partly drawn)
  EPAC2 ant val = -3.4%[11.4 µM]

# Exported as labelled records: 4 of the compounds above
(15) OCc1cnc[nH]1
  EPAC2 ant val: 11.8%

(16) N#Cc1ccc(CN2CC[C@@]3(CCCN(C(=O)Oc4ccccc4)C3)C2)cc1
  EPAC2 ant val: -28.4%

(17) C/C=C(\CC)C(=O)NC(N)=O
  EPAC2 ant val: -12.1%

(18) c1cc(CN2CCC3(CCNCC3)CC2)ccn1
  EPAC2 ant val: -13.2%

# Further structures.
No. | SMILES | EPAC2 ant val
31 | O=C(Nc1ccccc1)N1CC[C@@]2(CCCN(C(=O)Oc3ccccc3)C2)C1 | -25.2%
32 | O=C1Nc2ccc(Cl)cc2C(c2ccccc2Cl)=NC1O (stereo not drawn) | -7.6%
33 | NC(CO)Cc1ccccc1 (stereo not drawn) | -6.5%
34 | CCC(C)C(=O)O[C@@H]1C[C@@]2(C)C(c3ccoc3)OC(=O)CC23OC2(C)O[C@@]14[C@@]1(C)C(CC(=O)OC)C5(C)CC1(O)C(O)(C5OC(=O)C1(C)OC1C)C(OC(C)=O)[C@@]34O2 (stereo partly drawn) | ?
35 | O=S(=O)(c1ccc(Cl)cc1)c1ccc(Cl)cc1 | ?
36 | CCC12CCCN3CCC4(c5ccc(OC)c(O)c5N(C(C)=O)C4CC1)C32 (stereo not drawn) | -7.9%
37 | c1ccc2c(c1)[nH]c1cnccc12 | -23.8%
38 | COc1cc(C2c3cc4c(cc3C(O)C3COC(=O)C23)OCO4)cc(OC)c1O (stereo not drawn) | -7.3%
39 | C=C1[C@@H](C)[C@H]2[C@H](Cc3ccccc3)NC(=O)[C@]23[C@H](OC(C)=O)/C=C/[C@](C)(O)C(=O)[C@@H](C)C/C=C/[C@H]3[C@@H]1O | -5.5%
40 | CC(C)[C@]12O[C@H]1[C@@H]1O[C@]13[C@]1(O[C@H]1C[C@H]1C4=C(CC[C@@]13C)C(=O)OC4)[C@@H]2O | -38.6%[151 µM]
41 | COC(=O)c1cncn1C(C)c1ccccc1 (stereo not drawn) | 44.6%[activator]
42 | CC(C)(C)c1o[nH]c(=O)c1C[C@H](N)C(=O)O | -15.0%
43 | CCN(CC)Cc1nccn1-c1ccc([N+](=O)[O-])cc1C(=O)c1ccccc1Cl | -27.1%
44 | CC1NCCOC1c1ccccc1 (stereo not drawn) | -16.5%
45 | C=CC1CN2CCC1CC2C(O)c1ccnc2ccccc12 (stereo not drawn) | -14.3%&-17.5%
46 | CCOC(=O)[C@]12Cc3cc(N(C)C)ccc3[C@H]1N(Cc1ccccc1)C(=O)c1ccccc12 | 79.4µM*
47 | CCCN(CCC)C1Cc2cc(OC)c(OC)cc2C1 | -9.0%&-0.8%&-19.0%
48 | OCC(O)Cc1ccc2c(c1)OCO2 (stereo not drawn) | -3.0%
49 | COC(C)(C)CCCC(C)C/C=C/C(C)=C/C(=O)OC(C)C (stereo not drawn) | -18.2%&4.5%
50 | CC1=CC(=O)c2c(O)cccc2C1=O | ?
51 | C[C@H](N)Cc1cnc[nH]1 | -20.3%&-16.0%
52 | CC=C(C)C(=O)O[C@H]1C(C)=C2[C@@H]3OC(=O)[C@@](C)(O)[C@@]3(O)[C@@H](OC(=O)CCC)C[C@](C)(OC(C)=O)[C@@H]2[C@@H]1OC(=O)CCCCCCC | ?
53 | CCCN1CCC[C@@H](c2cccc(O)c2)C1 | -1.5%
54 | Cc1ccc(-c2nc3ccc(C)cn3c2CC(=O)N(C)C)cc1 | ?
55 | COc1ccc2c(c1)/C(=C/c1cnc[nH]1)C(=O)N2 | 1.1%
56 | C/C(=C\c1csc(C)n1)[C@@H]1C[C@@H]2O[C@]2(C)CCC[C@H](C)[C@H](O)[C@@H](C)C(=O)C(C)(C)[C@@H](O)CC(=O)O1 | 11.5%
57 | Cc1ccc(N=CN(C)C=Nc2ccc(C)cc2C)c(C)c1 | -15.9%
58 | CCCn1c(C)c(C(=O)c2cccc3ccccc23)c2ccccc21 | 20µM*
59 | COC[C@]12CN(C=O)C3C4C(OC)C1[C@@]3(C1CC3(O)C(OC)C(O)C4(OC(C)=O)C1C3OC(=O)c1ccccc1)[C@@H](OC)CC2O (stereo partly drawn) | -14.9%
60 | CN(C)Cc1c[nH]c2ccccc12 | 1.7%&-15.2%

# Looked up above.
# Under EPAC2 ant val, compound 44 is listed with -16.5%
# Under EPAC2 ant val, compound 40 is listed with -38.6%[151 µM]
# Under EPAC2 ant val, compound 39 is listed with -5.5%

# Continuation:
No. | SMILES | EPAC2 ant val
61 | Oc1ccccc1-c1ccccc1 | -16.3%
62 | C[C@@]1(CO)[C@H](O)CC[C@@]2(C)[C@H]1CC[C@H]1C[C@@H]3C[C@@]12CC[C@]3(O)CO | 63.1µM*
63 | c1ccc2sc(C3(N4CCCCC4)CCCCC3)cc2c1 | ?
64 | CCC(=O)Nc1ccc(Cl)c(Cl)c1 | -32.7%
65 | CCCCCC[C@H]1C(=O)O[C@H](C)[C@H](NC(=O)c2cccc(NC=O)c2O)C(=O)O[C@@H](C)[C@@H]1OC(=O)CC(C)C | 44.7µM*
66 | CC[C@@H](C(N)=O)N1CCCC1=O | -13.4%
67 | C[C@@H]([C@H](O)c1ccccc1)N(C)C | 16.1%
68 | Cc1cccc(C)c1NC(=O)CN1CCCC1=O | -14.8%
69 | CC(O)C(C)OC(=O)[C@@H]1C[C@@H]2c3cccc4c3c(cn4C(C)C)C[C@H]2N(C)C1 (stereo partly drawn) | 3.4%
70 | CC(C)=CCN1CC[C@@]2(C)c3cc(O)ccc3C[C@@H]1[C@@H]2C | 16.2%[239 µM]
71 | COC[C@H]1OC(=O)c2coc3c2[C@@]1(C)C1=C(C3=O)C2CCC(=O)[C@@]2(C)C[C@H]1OC(C)=O (stereo partly drawn) | -8.2%&26.8%&-3.2%
72 | CNC(C)C(O)c1ccccc1 (stereo not drawn) | -12.2%
73 | ClCCN(CCCl)c1ccc(C=Nc2ccc(/C=C/c3ccncc3)cc2)cc1 | -22.9%
74 | c1cnc(N2CCC3(CCNCC3)CC2)nc1 | -17.6%
75 | Cc1nc(-c2ccc(-c3ccc(C(=O)N4CCc5cc6c(cc54)C4(CCN(C)CC4)CO6)cc3)c(C)c2)no1 | ?
76 | COCCOCCO | -7.2%[239 µM]
77 | Cc1nnc2n1-c1sc(CCc3ccc(CC(C)C)cc3)cc1C(c1ccccc1Cl)=NC2C (stereo not drawn) | ?
78 | COc1cc2c(cc1-c1cc3cc4ccoc4cc3oc1=O)OCO2 | 1.26µM*
79 | CNC(C)Cc1ccc2c(c1)OCO2 (stereo not drawn) | 11.2%[239 µM]
80 | CCOCN(C(=O)CCl)c1c(C)cccc1CC | -21.1%
81 | O=[N+]([O-])c1cc([N+](=O)[O-])c2ccccc2c1 | 2.5%[239 µM]
82 | CCOC(=O)c1cc2c(cn1)[nH]c1ccccc12 | -3.1%&-8.8%
83 | COc1cc(C2c3cc4c(cc3C(OC(C)=O)[C@H]3COC(=O)C23)OCO4)cc(OC)c1OC (stereo partly drawn) | -16.2%&-8.1%
84 | N#Cc1ccc(CN2CCC3(CC2)CCN(C(=O)Oc2ccccc2)CC3)cc1 | -13.7%
85 | CC(C)(O)[C@H]1O[C@@H]2CC[C@]3(C)[C@@]4(C)c5[nH]c6ccccc6c5C[C@@H]4CC[C@]3(O)C2=CC1=O | ?
86 | N#C/C(=C\c1cccc(O)c1)C(=O)O | 1.7%
87 | c1cc(N2CCCC3(CCNCC3)C2)ccn1 | -25.5%
88 | CCCn1c(C)c(C(=O)c2ccc3ccccc3c2)c2ccccc21 | ?
89 | CC(=O)OC1CC[C@@]2(C)C3CC[C@]4(C)C(=O)CCC4C3CC[C@H]2C1 (stereo partly drawn) | -18.3%
90 | CCCC(=O)OCC[N+](C)(C)C | -4.5%

No. | SMILES | EPAC2 ant val
91 | NC(=NCCC[C@H](N)C(=O)O)N[N+](=O)[O-] | 2.6%&-20.9%
92 | CC(CN)CC(=O)O (stereo not drawn) | -7.9%
93 | CCC1(c2cnc[nH]2)Cc2ccccc2C1 | 16.2%&-25.3%
94 | ClCCN(CCCl)c1ccc(C=Nc2ccc(/C=C/c3ccnc4ccccc34)cc2)cc1 | -10.9%
95 | O=C(Oc1ccccc1)N1CCC2(CC1)CN(C(c1ccccc1)c1ccccc1)C2 | ?
96 | CN1[C@@H]2CC[C@H]1CC(O[C@@H](c1ccccc1)c1ccc(Cl)cc1)C2 (stereo partly drawn) | -21.7%

# High-throughput results as filed in PubChem.
